Assay outcomes from PubChem BioAssay.
KCNQ2 inh: KCNQ2 potassium channel inhibitors, primary screen, cell-based, CHO-K1, FluxOR thallium flux, B-score (AID 2156). O88943. 20 min; hits give low values; only compounds with negative scores are shown here; some inactives read as strong as hits. B-score at 10 µM. 310,000 compounds, 1.1% hits;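 active = fluorescence ratio B-score at most minus 3 library SDs, with starting brightness B-score within 2 library SDs, cut at about -5.5 in these data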
Target sequence (O88943 whole entry, looked up): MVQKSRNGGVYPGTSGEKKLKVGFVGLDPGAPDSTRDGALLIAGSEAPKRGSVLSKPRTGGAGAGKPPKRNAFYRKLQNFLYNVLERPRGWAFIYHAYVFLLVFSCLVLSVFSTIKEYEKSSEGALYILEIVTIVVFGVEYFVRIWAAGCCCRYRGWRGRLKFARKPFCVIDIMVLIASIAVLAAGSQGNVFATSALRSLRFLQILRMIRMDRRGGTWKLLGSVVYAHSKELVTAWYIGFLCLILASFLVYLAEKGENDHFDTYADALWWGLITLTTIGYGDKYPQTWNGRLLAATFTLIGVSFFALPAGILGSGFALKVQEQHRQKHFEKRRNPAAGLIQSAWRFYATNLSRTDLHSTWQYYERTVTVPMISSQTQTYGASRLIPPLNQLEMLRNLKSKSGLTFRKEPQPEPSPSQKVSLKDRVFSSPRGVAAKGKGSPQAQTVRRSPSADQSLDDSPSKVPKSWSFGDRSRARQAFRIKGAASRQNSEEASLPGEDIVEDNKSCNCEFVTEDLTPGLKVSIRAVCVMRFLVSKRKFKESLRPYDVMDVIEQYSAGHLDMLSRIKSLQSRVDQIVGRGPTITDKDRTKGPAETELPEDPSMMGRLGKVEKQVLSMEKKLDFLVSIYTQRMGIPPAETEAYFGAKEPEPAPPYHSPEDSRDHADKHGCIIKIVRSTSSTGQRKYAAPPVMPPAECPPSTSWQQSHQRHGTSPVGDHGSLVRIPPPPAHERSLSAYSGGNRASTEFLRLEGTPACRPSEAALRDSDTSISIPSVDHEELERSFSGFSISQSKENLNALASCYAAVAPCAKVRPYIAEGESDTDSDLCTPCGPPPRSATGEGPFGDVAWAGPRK
KCNQ2 inh baseline: recorded beside KCNQ2 inh, whose call it bears; B-score; measured here: initial fluorescence intensity artifact check;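 brightness before thallium and not channel activity; 0 = typical well and far values either way flag optical interference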
An asterisk follows results filed as active; i = inactive. An excerpt; the hit share may differ from the screen's.

SMILES	KCNQ2 inh	KCNQ2 inh baseline
CCC(C)NC(=O)CNC(=S)N(Cc1ccc(F)cc1)C1CCCCC1 (stereo not given)	i	0.26
O=C(NCCCn1ccnc1)Nc1ccc(Cl)c(Cl)c1	i	1.63
COC(=O)c1ccc(CSc2nc3ccccc3c(=O)n2-c2ccc(OC)c(OC)c2)o1	i	-1.37
COc1cccc(NC2=NCCCCC2)c1	i	-0.62
Cc1ccc(S(=O)(=O)N(C)CC(=O)Nc2ccc(C)cn2)cc1	i	0.48
Cc1ccc2oc(C(=O)N3CCN(Cc4ncccc4C)CC3)c(C)c2c1	i	-0.06
O=C(COc1ccccc1Cl)Nc1ccc(S(=O)(=O)N2CCOCC2)cc1	i	0.35
CC1CCN(S(=O)(=O)c2ccc3ccccc3c2)CC1	i	-2.07
COc1ccc(-c2oc3cc(O)c(OC)c(O)c3c(=O)c2OC)cc1	i	0.06
CC(C)(C)NC(=O)NCCc1ccccc1	i	-1.18
CCCS(=O)(=O)N1CCC(C(=O)Oc2ccc(OC)cc2)CC1	i	2.8
COc1ccc(NC(=O)c2cccc3c2C(=O)N(CC2CCCO2)C3)cc1OC (stereo not given)	i	0.14
CN(C)c1ccc(NC(=O)CSc2nc(C3CC3)nc3ccccc23)cc1	i	1.64
S=c1[nH]nc(-c2ccc3ccccc3n2)n1-c1ccccc1Cl	i	1.23
CCN(CC)S(=O)(=O)c1cccc(C(=O)N[C@H](C(=O)OCC(=O)Nc2ccccc2)C(C)C)c1	i	-1.34

Five structures from above, sorted by length of the SMILES, smallest number first:
SMILES	KCNQ2 inh	KCNQ2 inh baseline
CC(C)(C)NC(=O)NCCc1ccccc1	i	-1.18
CCCS(=O)(=O)N1CCC(C(=O)Oc2ccc(OC)cc2)CC1	i	2.8
Cc1ccc(S(=O)(=O)N(C)CC(=O)Nc2ccc(C)cn2)cc1	i	0.48
COC(=O)c1ccc(CSc2nc3ccccc3c(=O)n2-c2ccc(OC)c(OC)c2)o1	i	-1.37
CCN(CC)S(=O)(=O)c1cccc(C(=O)N[C@H](C(=O)OCC(=O)Nc2ccccc2)C(C)C)c1	i	-1.34

Later entries
SMILES	KCNQ2 inh	KCNQ2 inh baseline
Brc1ccc2ncnc(Nc3ccc(N4CCOCC4)cc3)c2c1	i	0.59
CN(C)c1ccc(/C=N/NC(=O)C[n+]2ccccc2)cc1	i	-2.39
O=C1C2C3c4ccccc4C(c4ccccc43)C2c2nc3ccccc3n21 (stereo not given)	i	-0.45
CCNC(=S)Nc1ccc(N2CCCCC2)cc1	i	-0.01
CCOC(=O)C1(C)NC(c2ccccc2F)C2C(=O)N(CC)C(=O)C21 (stereo not given)	i	-1.01
COc1ccc(S(=O)(=O)N2CCC(C(=O)N3CCc4ccccc4C3)CC2)cc1Cl	i	-0.17
CC1CCN(C(=O)CN2C(=O)c3ccccc3S2(=O)=O)CC1	i	-1.62
COc1ccc(/C=C/C(=O)c2ccccc2)cc1COc1ccccc1F	-7.58*	0.04*
COc1ccccc1-n1cnc2cc(NS(=O)(=O)c3ccc(Br)cc3)ccc21	i	0.63
Cc1ccc(C(=O)CSc2nnc(N)s2)c(C)c1	i	0.34
COc1ccc(CC2(CO)CCN(Cc3cnn(-c4ccc(F)cc4)c3)CC2)cc1	i	-0.63
COc1ccc2cc(C(=O)NCc3ccccc3)[nH]c2c1	i	-1.88
CCOC(=O)c1cc(C(=O)c2ccccc2O)cn2c(=O)c3c(C)c(C)sc3nc12	i	-0.28
CC1CCCN(C(=O)CSc2nc3ncccc3[nH]2)C1 (stereo not given)	i	-0.7
CCOc1ccc(C(C)=O)cc1CN1C(=O)NC2(CCCCC2C)C1=O (stereo not given)	i	0.47
O=C(Cc1csc(Nc2nc(=S)[nH]c3ccccc23)n1)NCc1ccccc1Cl	i	-2.93
O=C(COC(=O)CCCOc1ccccc1)NNC(=O)c1ccc([N+](=O)[O-])cc1	i	-0.2
CCC(C(=O)N1CCOCC1)n1c(C(=O)OC)cc2occc21 (stereo not given)	i	-0.12
CC1CCCC(NC(=O)COC(=O)c2ccc(S(=O)(=O)N3CCOCC3)cc2)C1C (stereo not given)	i	0.65
CCC(C)(c1ccc(C(=O)OC)s1)c1ccc(C(=O)OC)s1	i	1.11
CC(=O)Nc1ccc(S(=O)(=O)N2CCN(Cc3cccnc3)CC2)cc1	i	-1.15
Cc1ccn2cc(CNS(=O)(=O)c3ccc(Cl)s3)nc2c1	i	-1.64
CCCNC(=O)Cn1c(=O)/c(=C\c2ccc(-c3cccc([N+](=O)[O-])c3)o2)s/c1=C\C(=O)C(C)(C)C	i	1.42
Cc1ccc(NS(=O)(=O)c2cccc(C(=O)NCC3(N(C)C)CCCCC3)c2)cc1	i	3.82
CCN(CC)CCN(C(=O)c1ccc(S(=O)(=O)N2CCCC2)cc1)c1nc2cc(C)cc(C)c2s1	i	-1.7
Cc1ccc(OCC(=O)N(Cc2ccco2)C2CCS(=O)(=O)C2)cc1 (stereo not given)	i	-0.59
CCc1nnc(NC(=O)C2(C)COC(c3ccccc3)OC2)s1 (stereo not given)	i	-0.99
CC(=O)Nc1ccc2cc3ccc(NC(C)=O)cc3nc2c1	i	2.85
COc1cc2c(cc1OC)-c1n[nH]c(=S)n1C(C)(C)C2	i	-0.67
Cc1ccc(-c2csc3ncnc(-n4nnc5ccccc54)c23)cc1	i	-0.74

Quoted at random: seven compounds from above, in no set order.
SMILES	KCNQ2 inh	KCNQ2 inh baseline
O=C(COC(=O)CCCOc1ccccc1)NNC(=O)c1ccc([N+](=O)[O-])cc1	i	-0.2
O=C(Cc1csc(Nc2nc(=S)[nH]c3ccccc23)n1)NCc1ccccc1Cl	i	-2.93
CC(=O)Nc1ccc2cc3ccc(NC(C)=O)cc3nc2c1	i	2.85
Cc1ccc(-c2csc3ncnc(-n4nnc5ccccc54)c23)cc1	i	-0.74
CCCNC(=O)Cn1c(=O)/c(=C\c2ccc(-c3cccc([N+](=O)[O-])c3)o2)s/c1=C\C(=O)C(C)(C)C	i	1.42
CCN(CC)CCN(C(=O)c1ccc(S(=O)(=O)N2CCCC2)cc1)c1nc2cc(C)cc(C)c2s1	i	-1.7
CCc1nnc(NC(=O)C2(C)COC(c3ccccc3)OC2)s1 (stereo not given)	i	-0.99

(further entries)
SMILES	KCNQ2 inh	KCNQ2 inh baseline
CCOc1ccccc1C(=O)N1CCN(c2cccc(Cl)c2)CC1	i	3.9
Cc1ccc2c(c1)N(CC(=O)NCCCN1CCCC1)C(=O)CO2	i	-0.36
Cn1nnnc1-c1cc(Cl)cc(Cl)c1	i	-0.39
C=CC[C@]12CC=CC(=O)[C@@]1(O)O[C@H](c1ccc(OC)c(OC)c1)[C@H]2C	i	0.02
CC1CC(C)CN(CCCNC(=O)c2ccc(CNS(=O)(=O)c3ccc(F)cc3)cc2)C1 (stereo not given)	i	-0.22
O=C(c1cnn(-c2ccc(Cl)cc2)c1)c1ccccc1O	i	-0.48
O=C(Cn1cnc([N+](=O)[O-])n1)NCc1ccccc1	i	3.32
Cc1ccc(CN/C=C/C(=O)c2ccc(Br)cc2)cc1	i	-2.74
COCCCNc1nc2nonc2nc1N1C[C@H]2CC[C@H]1C2	i	-0.09
CCn1c(/C=C/Nc2ccccc2)[n+](CC)c2ccc(C(=O)OCC(F)(F)F)cc21	i	-1.54
O=C(Nc1ccc(N2CCCC2)cc1)c1cc(Br)ccc1Cl	i	0.55
CCOC(=O)C1(Cc2ccc(Cl)cc2)CCN(C(C)Cc2ccc(O)c(OC)c2)CC1 (stereo not given)	i	0.62
C/C(=N\NC(=O)CNC(=O)c1ccccc1F)c1ccco1	i	1.27
NC(=S)NNc1ccc(Cl)c(Cl)c1	i	-1.37
COc1ccc(NC(=O)CNc2ccc(C#N)cc2)cc1	i	-0.19
CCOC(=O)C1(C)NC(c2ccccc2F)C2C(=O)N(c3cccc(C(C)=O)c3)C(=O)C21 (stereo not given)	i	0.58
O=[N+]([O-])c1ccc(N2CCN(Cc3ccccc3)CC2)s1	i	-0.64
O=C1CC(N2CCN(c3ncccn3)CC2)C(=O)N1CCc1ccccc1 (stereo not given)	i	-0.84
Clc1ccc(-c2csc(-c3cccnc3)n2)s1	i	0.18
O=c1c(N2CCOCC2)nsn1Cc1ccccc1	i	-0.41
O=S(=O)(Nc1cccc2[nH]ncc12)c1cccs1	i	1.14
Cc1ccc(C2=NNC(c3ccc(Cl)cc3)=Nc3ccccc32)o1	i	-0.03
COC(=O)C1=C(C)N(Cc2ccc3c(c2)OCO3)C(=O)C1	i	0.03
Cc1onc(-c2ccccc2)c1-c1nnc(-c2ccccc2C(F)(F)F)o1	i	-0.02
Cn1cc(/C=C2\SC(=S)N(NC(=O)c3ccccc3)C2=O)c2ccccc21	i	-0.55
CC(C)(C)C(=O)Cn1nnc(-c2ccc(C(F)(F)F)cc2)n1	i	1.19
CC(=O)NC(Cc1ccc(C)cc1)C(=O)NC1CCN(S(=O)(=O)c2ccccc2)CC1 (stereo not given)	i	0.05
CC(C)Oc1ccc(C(=O)NCCCNC(=O)c2cccnc2)cc1	i	-0.96
Cc1ccc(CNC(=O)C23CN(Cc4ccccc4)CC2C(c2ccc([N+](=O)[O-])cc2)=NO3)o1 (stereo not given)	i	-0.79
O=C1OCCC1Sc1nc2cc(Cl)ccc2n1Cc1ccccc1 (stereo not given)	i	-0.59
COC(=O)c1cccc(Cn2cc([N+](=O)[O-])cn2)c1	i	-0.77
CCc1ccc(C(=O)c2ccccc2C(=O)O)s1	i	0.02
CC(=O)c1ccc(S(=O)(=O)N(C)CC(=O)NCC2CCCCC2)cc1	i	0.26
Cc1ccc2nc(COc3ccc(Cl)cc3)cc(=O)n2c1	i	0.01
CCN(CC)S(=O)(=O)c1cc(NC(=O)c2cc([N+](=O)[O-])ccc2N2CCOCC2)ccc1C	i	0.98
Cc1cc(-c2nnc(SCC(=O)NC3CC3)n2C(C)C)cs1	i	-0.06
CCn1c(NC(=O)c2ccc(COc3ccc(C)cc3[N+](=O)[O-])o2)nc2ccccc21	i	-1.62
CCOC(=O)N1CCN(C(=O)c2cccn3c(=O)c4cc(Cl)ccc4nc23)CC1	i	-0.07
COc1ccc(CCNC(=S)N(C)C)cc1OC	i	-1.44
O=C(Nc1cccc(Cl)c1)c1ccc(NCC2CCCO2)c([N+](=O)[O-])c1 (stereo not given)	i	1.18
CCOc1ccc(-c2nnc3ccc(SCc4ccc(C(=O)OC)o4)nn23)cc1	i	-0.01
O=C(C1=C(O)C(=O)N(CCN2CCOCC2)C1c1ccc([N+](=O)[O-])cc1)c1cccs1 (stereo not given)	i	2.99
CCc1ccc(C(=O)OCC(=O)NCCNC(=O)COC(=O)c2ccc(CC)cc2)cc1	i	0.09
COc1ccc(OC)c(NC(=O)c2cccc(Cn3cc(Br)c([N+](=O)[O-])n3)c2)c1	i	1.46
Cc1ccc(-n2[nH]c(C)c(CCC#N)c2=O)cc1	i	0.69
O=C1CC(NNc2ccccc2)C(=O)N1c1ccccc1 (stereo not given)	i	0.74
c1ccc(Cn2c(CSc3nnnn3-c3ccccc3)nc3ccccc32)cc1	i	0.53
O=C(CN(c1ccccc1F)S(=O)(=O)c1ccccc1)Nc1ccc2c(c1)OCCO2	i	2.15
O=C1CC(N2CCN(c3ccc(F)cc3)CC2)C(=O)N1Cc1cccs1 (stereo not given)	i	-0.08
CCc1ccccc1N1CC23C=CC(O2)C(C(=O)OCC(C)C)C3C1=O (stereo not given)	i	0.02
O=C(CSc1ccc2ccccc2c1Br)Nc1cccc(S(=O)(=O)NC2=NCCCCC2)c1	i	0.1
Cc1ccc(C(=O)NCC(=O)Nc2ccncc2)cc1	i	-1.34
CCNC(=S)N/N=C(\C)c1ccc2ccccc2c1	i	0.43
Cc1cc(C)n2nc(SCC(=O)N/N=C/c3ccccn3)nc2n1	i	-0.32
C=C(C)C1CCC2(C(=O)O)CCC3(C)C(CCC4C5(C)C(C=O)C(O)C(C)(C)C5CCC43C)C12 (stereo not given)	i	0.92
COc1ccc(OC)c(/C=c2\sc3nc(-c4cccs4)nn3c2=O)c1	i	3.76
O=C(NCc1ccc(F)c(F)c1)C1CCC(=O)N(CCc2ccccc2)C1 (stereo not given)	i	1.89
C1=C(c2ccccc2)Nc2ncnn2C1c1ccccc1 (stereo not given)	i	1.9
O=C(CCC(=O)N(CC(=O)NC1CCCCC1)Cc1cccs1)Nc1ccccn1	i	-0.55
CCC(=O)N1c2ccc(S(=O)(=O)CCC(=O)NC3CCCC3)cc2CC1C (stereo not given)	i	1.1

More compounds
SMILES	KCNQ2 inh	KCNQ2 inh baseline
COc1cc(OC)cc(-c2nnc(NC(=O)CCS(=O)(=O)c3ccccc3)o2)c1	i	-0.6
COC(=O)c1c(NC(=O)COC(=O)Cn2cnc3ccccc32)sc2c1CCCC2	i	-1.44
CCC(C)C(=O)Nc1nc(C)c(-c2csc(Nc3cc(OC)ccc3OC)n2)s1 (stereo not given)	i	1.73
COc1ccc(-c2cn3nc(SCC(=O)NCC4CCCO4)ccc3n2)cc1 (stereo not given)	i	-2.25
Clc1cnc(N/N=C/c2cccs2)c(Cl)c1	i	-1.49
c1ccc(OCCSc2nnnn2C2CCCCC2)cc1	i	1.98
CC(O)[C@H]1CC[C@H]2[C@@H]3CC[C@H]4C[C@@H](O)CC[C@]4(C)[C@H]3C(=O)C[C@]12C (stereo not given in full)	i	-0.59
COc1ccc(/C=C/C(=O)c2cc(Cl)ccc2O)c(OC)c1	i	0.06
Oc1ccc(/C=N/n2cc(-c3ccccc3)[nH]c2=S)cc1	i	0.49
O=S(=O)(Nc1ccccc1N1CCOCC1)c1ccc(F)c(Cl)c1	i	0.33
COc1ccc(/C(N)=N/OC(=O)c2c(-c3ccccc3Cl)noc2C)cc1OC	i	-3.64
Cc1cc(Cl)ccc1Oc1ncc(-c2ccc(Cl)cc2)cn1	i	2.14
